AmpC nodet inh: AmpC beta-lactamase inhibition, detergent-free assay | AmpC nitrocefin hydrolysis, absorbance 480 nm, no detergent; potencies from a single point are estimates | Potency, µM (doses to about 28.7 µM), without a hit: at the top dose activity change, negative = inhibition | 71,000 tested, 1.8% active | AID 585; active = falling curve, for most hits resting on a single point; inconclusive = weak or doubtful change; inactive = flat or rising curve; note: % of control where 0% means no effect; about half of the hits show no inhibition at the top dose; a quarter of the inactives give rising signals
Target sequence (P00811 whole entry, looked up): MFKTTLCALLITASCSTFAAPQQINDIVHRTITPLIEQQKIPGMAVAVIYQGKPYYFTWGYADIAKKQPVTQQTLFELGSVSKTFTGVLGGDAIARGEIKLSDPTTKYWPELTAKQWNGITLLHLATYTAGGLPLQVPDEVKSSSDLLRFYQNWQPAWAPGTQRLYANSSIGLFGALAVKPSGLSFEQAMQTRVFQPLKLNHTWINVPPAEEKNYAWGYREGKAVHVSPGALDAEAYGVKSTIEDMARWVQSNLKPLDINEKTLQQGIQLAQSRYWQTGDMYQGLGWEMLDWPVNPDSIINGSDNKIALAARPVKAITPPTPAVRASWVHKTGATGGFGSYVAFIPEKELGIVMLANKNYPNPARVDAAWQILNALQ
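AmpC, 20 mM phosphate pH 7.0; 15 min cpd preinc, RT; start with nitrocefin (800 uM stock); A480 kinetic read, 20 s intervals, 4 min. No-enzyme wells = negative control.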
Numbers without * were called inactive; ? = inconclusive; [ ] = remark or other dose. Potency is the fitted concentration of half-maximal effect.

SMILES | AmpC nodet inh
CC(C)CC1(C(=O)O)C=CCN1C(=O)c1ccccc1 (stereo unspecified) | -2%
C=C1c2c(Cl)ccc(O)c2C(O)=C2C(=O)[C@@]3(O)C(O)=C(C(N)=O)C(=O)[C@@H](N(C)C)[C@@H]3[C@@H](O)[C@H]12 | -10%[12.8 µM]
CCOc1ccc(NC(=O)N2CCC(n3c(=O)[nH]c4ccccc43)CC2)cc1 | 76%
CCCCC(=O)Nc1nnn(CCC)n1 | 3%
CCC(OC(=O)c1cc2sccc2n1C)C(=O)NCc1ccco1 (stereo unspecified) | 14%
O=C(OCCN1C(=O)c2ccccc2C1=O)c1cc(S(=O)(=O)N2CCOCC2)ccc1F | 74%
O=C(CSc1nccn1-c1ccccc1)N1CCc2ccccc21 | 24%
COc1ccc(OCC(=O)Nc2ccc(C)cc2)cc1 | 2%
O=c1c(-c2ccc(F)cc2)nc2cncnc2n1-c1ccccc1 | 0%
CCCCOc1ccc(CN2CCCCC2)cc1 | -7%
CN(C)C(=O)COc1ccc2cc(-c3ccccc3)c(=O)oc2c1 | 24%
COC(=O)CCCCCN1C(=O)NC(c2ccc(-c3ccccc3)cc2)C(C(=O)OCc2ccccc2)=C1C (stereo unspecified) | 4%
Cc1ccc(-n2c(=O)[nH]c3c(C(N)=O)nc(-c4ccc(C)o4)nc32)cc1 | 64%
CC(C)(c1ccccc1)c1ccc(O)cc1 | -12%
O=C(NC1CCCCC1)c1cnn2c(C(F)(F)F)cc(-c3ccco3)nc12 | 80%
CCOc1ccc(OCC)c(NC(=O)CN2CCN(c3cccc(C)c3C)CC2)c1 | 12%
COc1cc(CNC(=O)CCCC/C=C\C(C)C)ccc1O | 21%
CC1CCN(c2nc3c(c(=O)n(C)c(=O)n3C)n2CCSc2ncccn2)CC1 | 23%
Cc1nnc(SCCn2c(N3CCCC(C)C3)nc3c2c(=O)[nH]c(=O)n3C)s1 (stereo unspecified) | 26%
CCCn1c(=N)n(CC(O)COc2cccc(C)c2)c2ccccc21 (stereo unspecified) | 10%
Cc1ccc(-c2noc(CN(C(=O)c3cccc(Br)c3)C(C)C)n2)cc1 | 26%
CC(C(=O)N=c1sc2ccccc2n1C)N1C(=O)C2CC=CCC2C1=O (stereo unspecified) | 36%
CCCN(C(=O)c1ccccc1N)c1c(C)n(C)n(-c2ccccc2)c1=O | 7%
COc1ccc(NC(=O)CSc2nc3c(c(=O)n2-c2ccc(C)cc2)SCC3)c(OC)c1 | 42%
CC(=O)OC(C#CCN1CCOCC1)c1ccccc1 (stereo unspecified) | 5%
O=C(O)[C@@H](O)[C@@H](O)[C@H](O)[C@H](O)CO | 4%[5.75 µM]
NS(=O)(=O)c1ccc(NC(=O)CSc2nnc(-c3cnccn3)n2-c2ccccc2)cc1 | 27%
COc1ccc(CNC(=O)C(C)OC(=O)c2cccn2C)cc1 (stereo unspecified) | 12%
COc1ccc(-n2nc(C(=O)NCc3ccco3)c3c4ccccc4n(C)c3c2=O)cc1 | 82%
Cc1cc(Cc2cc(C)cc(C(C)(C)C)c2O)c(O)c(Cc2cc(C)cc(C(C)(C)C)c2O)c1 | -25%[5.75 µM]

16 entries from above, with tabs:
Molecule	AmpC nodet inh
CC(C)CC1(C(=O)O)C=CCN1C(=O)c1ccccc1 (stereo unspecified)	-2%
C=C1c2c(Cl)ccc(O)c2C(O)=C2C(=O)[C@@]3(O)C(O)=C(C(N)=O)C(=O)[C@@H](N(C)C)[C@@H]3[C@@H](O)[C@H]12	-10%[12.8 µM]
CCOc1ccc(NC(=O)N2CCC(n3c(=O)[nH]c4ccccc43)CC2)cc1	76%
CCCCC(=O)Nc1nnn(CCC)n1	3%
CCC(OC(=O)c1cc2sccc2n1C)C(=O)NCc1ccco1 (stereo unspecified)	14%
O=C(OCCN1C(=O)c2ccccc2C1=O)c1cc(S(=O)(=O)N2CCOCC2)ccc1F	74%
O=C(CSc1nccn1-c1ccccc1)N1CCc2ccccc21	24%
COc1ccc(OCC(=O)Nc2ccc(C)cc2)cc1	2%
O=c1c(-c2ccc(F)cc2)nc2cncnc2n1-c1ccccc1	0%
CCCCOc1ccc(CN2CCCCC2)cc1	-7%
CN(C)C(=O)COc1ccc2cc(-c3ccccc3)c(=O)oc2c1	24%
COC(=O)CCCCCN1C(=O)NC(c2ccc(-c3ccccc3)cc2)C(C(=O)OCc2ccccc2)=C1C (stereo unspecified)	4%
Cc1ccc(-n2c(=O)[nH]c3c(C(N)=O)nc(-c4ccc(C)o4)nc32)cc1	64%
CC(C)(c1ccccc1)c1ccc(O)cc1	-12%
O=C(NC1CCCCC1)c1cnn2c(C(F)(F)F)cc(-c3ccco3)nc12	80%
CCOc1ccc(OCC)c(NC(=O)CN2CCN(c3cccc(C)c3C)CC2)c1	12%

Next section
SMILES | AmpC nodet inh
Cc1cccc(C)c1NC(=O)Cn1cnc2c(=O)n(C)c(=O)n(C)c21 | -2%
Cn1c(SCC(=O)c2ccc(F)cc2)nnc1-c1cnccn1 | -7%
CN1CCN(CCNC(=O)c2cc3c(=O)n(C)c4ccccc4c3n2C)CC1 | 4µM*[single pt active]
CCCCC(CC)COC(=O)COc1ccc(Cl)cc1Cl (stereo unspecified) | -8%
Cc1ccc2nc3c(cc(C#N)c(=N)n3CC3CCCO3)c(=O)n2c1 (stereo unspecified) | 7%
O=C(O)c1ccc(Cl)c(S(=O)(=O)N2CCCCCC2)c1 | -10%
O=C(Cn1cnc2c(nnn2Cc2ccc(F)cc2)c1=O)N1CCCc2ccccc21 | 10%
O=C(Nc1ccc2c(c1)OCCO2)C1CCN(S(=O)(=O)c2cccs2)CC1 | ?
Cc1ccc(C(=O)CSc2nnc(CNc3nc(-c4ccccc4)cs3)n2C)cc1 | ?
COc1ccc(S(=O)(=O)N2C3CCC2CC(NC(=O)C2CC2)C3)cc1 (stereo unspecified) | 0%
Cc1cc(C)c(NC(=O)c2ccc(S(=O)(=O)N(C)C)cc2)c(C)n1 | 10%
CCn1ccnc1C(O)c1ccc(N(C)C)cc1 (stereo unspecified) | 2%
CCOC(=O)c1c(C)n(OCc2ccccc2)c2ccc3c(no[n+]3[O-])c12 | 12%
Cc1ccc(C)c(C(=O)NC2CC(C)(C)NC(C)(C)C2)c1 | -6%
COC(=O)c1ccc(OCC(O)CN2C(=O)NC(C)(C)C2=O)cc1 (stereo unspecified) | 2%
Cc1nc2ccc(N3C(=O)CCC3=O)cc2[nH]1 | -7%
CCOC(=O)NC(=O)CSc1nc2ccc(OCC)cc2[nH]1 | -11%
COc1cccc(OC)c1/C(O)=C(\C#N)c1nc2ccccc2[nH]1 | 22%
Cc1nc(SCC(=O)c2c(C)[nH]c3ccccc23)c2c(=O)n(C)c(=O)n(CC(C)C)c2n1 | -2%
N#Cc1cc(N)c(Nc2ccccc2)cc1C#N | -18%
CCCN1Cc2cccc(C(=O)Nc3ccc(CN4CCCC4)cc3)c2C1=O | 22%
Cc1ccc(C2c3sc(=O)[nH]c3SC3C(=O)NC(=O)C32)cc1 (stereo unspecified) | 0%
COc1ccc(C(=O)NC(C)c2nc3ccccc3[nH]2)cc1OC (stereo unspecified) | 1%
Cc1noc(C)c1CSCC(=O)N1CCN(c2ccc(F)cc2)CC1 | 45%
CN1CCN(S(=O)(=O)c2cccc(C(=O)N(c3ccccn3)C3CCCCC3)c2)CC1 | 73%
Cc1ccc(C)c2[nH]c(=O)c(CN(CCN3CCCC3)C(=O)Nc3ccc(F)cc3)cc12 | 60%
CCC(C)Sc1nc2c([nH]c3ccccc32)c(=O)n1C (stereo unspecified) | 5%
CCn1c(COc2ccccc2C)nnc1SCC(=O)NCc1ccccc1 | 69%
CCOc1cc(-c2nc3ccccn3c2NCC2CCCO2)ccc1O (stereo unspecified) | 0%
Cc1cc(C)nc(NS(=O)(=O)c2ccc(NC(=O)C3CC(=O)N(c4ccccc4)C3)cc2)n1 (stereo unspecified) | -5%
C1CCC(c2nn3c(-c4n[nH]c5c4CCC5)nnc3s2)CC1 | 2%
CCOc1ccc(-c2[nH]ncc2-c2ccc(OC)c(OC)c2)c(O)c1 | -9%
CC(C)Oc1ccc(C(=O)N2CCCC2C(=O)O)cc1 (stereo unspecified) | -1%
Cc1nnc(NC2=NCCC2)o1 | -5%
CCCc1nnc(SCC(=O)Nc2ccc(OCC)cc2)n1N | 10%
CCOC(=O)C1CCN(CC(=O)Nc2c(C(=O)OC)[nH]c3ccc(Cl)cc23)CC1 | 94%
COc1cccc(-c2ccc(=O)n(CC(=O)NCCN3CCOCC3)n2)c1 | 21%
CC(=O)N1C(C(=O)O)CSC1c1ccc(C)cc1 (stereo unspecified) | -1%
Cc1c(C(=O)N2CCN(C)CC2)oc2ccc(S(=O)(=O)N3CCOCC3)cc12 | 12%
O=C(NCCCN1CCCC1=O)c1cccc(N2CCCC2=O)c1 | 3%
COc1ccccc1N=C(C)C1=C(O)CSC1=O | -4%
COc1cccc(N2CCN(CC(=O)Nc3nnc(-c4ccccc4)s3)CC2)c1 | -17%
COc1ccc(N(CC(O)Cn2nnc3ccccc32)S(=O)(=O)c2ccc(C)cc2)cc1 (stereo unspecified) | 8%
Cc1cc2nsnc2c(S(=O)(=O)NCC(=O)O)c1C | -2%
CCCc1cc(=O)[nH]c(SCC(=O)NC(=O)c2ccccc2)n1 | -14%
Cn1cccc1C(=O)N1CCC2(CC1)CCN(c1cccc(-c3ccccc3)c1)CC2 | 108%
CCOc1ccc(OCC)c(NC(=O)C2CCCN2S(=O)(=O)c2cccc3cccnc23)c1 (stereo unspecified) | 109%
CCOc1ccccc1-n1nnnc1SCC(=O)Nc1cc(C)on1 | -13%
CCn1c2ccccc2c2nnc(SCc3ccc(C(=O)OC)o3)nc21 | 62%
CC(C)(C)C1=C(C#N)C(c2ccc3c(c2)OCO3)C(C#N)=C(N)O1 (stereo unspecified) | -9%

Remaining list, next part:
SMILES | AmpC nodet inh
CN=C1SC(CC(=O)Nc2ccc(N3CCOCC3)cc2)C(=O)N1C (stereo unspecified) | 4%
CC(NC(=O)c1cn(C)c2ccc(S(=O)(=O)N3CCCC3)cc2c1=O)c1ccc2c(c1)OCCO2 (stereo unspecified) | 109%
COc1cc(NC(=O)c2ccc(COCC(F)(F)F)o2)cc(OC)c1OC | 35%
CCc1c(O)nc(SCC(=O)Nc2ccc(C)cc2)n(C2CCCCC2)c1=O | -18%
CC(C)(C)NS(=O)(=O)c1ccc(CCC(=O)N2CCCCC2)cc1 | 10%
C=C(C)Cn1c(=O)c2c(nc3n2CCN3c2cccc(Cl)c2C)n(C)c1=O | 66%
COc1cc(/C=C\C(=O)N2CCC=CC2=O)cc(OC)c1OC | 4%[12.8 µM]
Cc1cccc(NCC(O)Cn2cnc3c2c(=O)n(C)c(=O)n3C)c1 (stereo unspecified) | 19%
O=C(CSCc1ccccc1)N1CCN(Cc2ccc3c(c2)OCO3)CC1 | 74%
COc1ccc(Cn2nnnc2C(C(C)C)N2CCN(c3ccccc3OC)CC2)cc1 (stereo unspecified) | 94%
Cc1cc(N)c(-n2cc3c(=O)n(C)c(=O)n(C)c3c2)cc1C | 75%
COCc1cc(C)nc(Nc2cc(C)ccc2C)c1C#N | 0%
CCOC(=O)c1cnc(N2CCOCC2)[nH]c1=O | -6%
O=C(CCSc1nnc(-c2ccncc2)o1)Nc1ccccc1 | 2%
COc1cc(C(c2sc3nc(C)nn3c2O)N2CCc3ccccc3C2)cc(OC)c1OC (stereo unspecified) | 21%
Cc1ccc(S(=O)(=O)c2c(C)nn(C(C)(C)C)c2OC(=O)c2ccco2)cc1 | 47%
C[C@H](CO)NC(=O)[C@H](C)[C@@H]1C[C@@]1(C)[C@@H](NC(=O)OCc1ccccc1)c1ccccc1 | 117%
COc1ccc(-c2nsc(SCC(=O)Nc3cc(C)on3)n2)cc1 | -4%
Brc1c(CSc2nncn2-c2ccccc2)nc2ncccn12 | -1%
COc1cccc(Cn2c(=O)c(CCc3ccccc3)nc3cnc(OC)nc32)c1 | 57%

Next section; it opens with the 2 that closed the last part.
SMILES | AmpC nodet inh
Brc1c(CSc2nncn2-c2ccccc2)nc2ncccn12 | -1%
COc1cccc(Cn2c(=O)c(CCc3ccccc3)nc3cnc(OC)nc32)c1 | 57%
CC1(C)COCN1COC1CCCCC1 | 0%[5.75 µM]
O=C(COC(=O)c1ccc(Br)c(S(=O)(=O)N2CCOCC2)c1)NCC1CCCO1 (stereo unspecified) | -3%
CCN(CC)CCOC(=O)c1cccc(Cl)c1 | -2%
C=CCC(NCc1ccccc1)c1ccco1 (stereo unspecified) | 9%
CCCCC(CC)Cn1c(N)c(C#N)c2nc3ccccc3nc21 (stereo unspecified) | -1%
CCOC(=O)N1CCC(Nc2ncnc3c2cnn3-c2ccc(C)cc2C)CC1 | 75%
O=P(CN1CCN(c2ccccc2)CC1)(N1CCCCC1)N1CCCCC1 | 108%
FC(F)(F)c1nc2ccc(SSc3ccc4nc(C(F)(F)F)[nH]c4c3)cc2[nH]1 | -22%[5.75 µM]
CC(C)(C)c1c2c(c(C(C)(C)C)c3c1OCN(Cc1ccccc1)C3)OCN(Cc1ccccc1)C2 | -6%[5.75 µM]
Nc1c(Br)cc([N+](=O)[O-])cc1[N+](=O)[O-] | -12%
COc1ccc(-n2c(=O)cnc3cnc(N4CCOCC4)nc32)cc1 | 15%
CCOC(=O)CC1(CC(=O)OCC)NC(=O)c2c(C)sc(C(=O)OCC)c2N1 | 58%
Nc1nc2c(ncn2[C@H]2CC[C@@H](CO)O2)c(=O)n1C(=O)c1ccccc1 | 7%[5.75 µM]
COC(=O)CN(n1cnnc1)S(=O)(=O)c1ccccc1 | -5%
Cc1c(-c2ccccc2)sc(N)c1C(=O)N1CCOCC1 | 31%
O=C1CC(c2ccncc2)c2cc3c(cc2N1)OCCO3 (stereo unspecified) | 2%

Screening results: PubChem BioAssay, National Center for Advancing Translational Sciences (NCATS)

This is a subset; the hit share may differ from the screen's.
